# Screens deposited in PubChem BioAssay by several laboratories.
# FGF22 binding = shifts melting point of recombinant human FGF22. recombinant FGF22 thermal shift, SYPRO orange fluorescence; percent of sucrose octasulfate shift, DMSO zero. calls only at 9.99 µM. 340,000 tested, 1.5% active. AID 651658;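 active = melting point raised past a set limit in the mean and every replicate; inconclusive = no clear call; three in four hits are not shown here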
# Target sequence (Q9HCT0 whole entry, looked up): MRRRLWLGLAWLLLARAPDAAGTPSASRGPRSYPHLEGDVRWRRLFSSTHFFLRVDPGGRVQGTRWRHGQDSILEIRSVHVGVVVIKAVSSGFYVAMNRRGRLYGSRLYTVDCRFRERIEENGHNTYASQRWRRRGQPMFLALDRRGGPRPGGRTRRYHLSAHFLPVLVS
# Ecoli growth = blocks Escherichia coli growth. OD600, 23 h; stronger effect = lower value. OD600 absorbance (test concentration not listed). 330,000 tested, 0.21% active;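 active = OD600 absorbance below the run mean of sample wells minus 3.6 SD, in any replicate, cut at about 0.56 in these data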;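 note: stock transfer was 300 nL into about 60 µL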
# rRNA inh HTS = inhibits bacterial ribosomal RNA function over humanized ribosomes; AID 720706; 350,000 tested, 1.6% active; E. coli WT GFP vs humanized-ribosome RFP mutants, fluorescence, 24 h; stronger effect = lower value; DMSO median 0, no signal -100; GFP signal change (wild-type ribosome), % (concentration not given with the values);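 active = significant combined selectivity score with lowered wild-type GFP, culture density cut under 30%, mutant RFP and density less affected; inactive = any of these conditions unmet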; note: one replicate is shown; some compounds called inactive have numbers as strong as hits
# Bfl-1 A1 inh = inhibitors of the anti-apoptotic protein A1, read as caspase activation; MEF A1-2A-BIM cells, Caspase-Glo 3/7 luminescence, 3 h; percent of clofoctol response, vehicle zero; caspase activation, % (no concentration beside the values); 330,000 tested, 0.066% active;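 active = over half of replicate activation scores above 10%, or exactly half above 10 with the replicate mean above 10; inconclusive = replicate mean below 10 yet half the replicates above 10; inactive = over half of replicates below 10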;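 note: wells of about 30 µL received 50 nL stock; many hits fall short of the cut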
# T cruzi inh = blocks replication of Trypanosoma cruzi | T. cruzi beta-gal in NIH3T3, luminescence, 90 h | inhibition, % (concentration not given with the values) | 300,000 tested, 1.4% active | AID 1885;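 active = mean inhibition across valid replicates above about 55%, limit read from the data; inconclusive = mean below that limit but half or more replicates reach it; inactive = mean below it, under half of replicates reach it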;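 note: signal also drops with host cell toxicity which is not excluded here; 0% = plate median of DMSO wells and 100% = zero luminescence signal; higher percent means less beta-gal luminescence so fewer parasites; stock transfer was 50 nL into about 50 µL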
# Beta apoptosis = beta cell apoptosis inhibition | INS-1E cytokine-induced death, ATP luminescence, 48 h; percent of positive-control rescue, neutral wells zero | protection from apoptosis, % (test concentration not listed) | 300,000 tested, 0.8% active | AID 435005;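 active = all replicates at 75% or more, or half of them and the mean; inconclusive = half reach 75% but not the mean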;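 note: 0% = cytokine-treated negative control wells and 100% = positive control rescue; higher means more ATP so stronger rescue from cytokine killing; wells of about 40 µL received 100 nL stock; the first replicate is given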
# UCH37 inh = inhibitors of human deubiquitinating enzyme UCH37; inhibition, % (no concentration beside the values); 330,000 tested, 0.33% active; purified proteasome/UCH37, Ub-AMC cleavage fluorescence; Q9Y5K5;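 active = mean of two replicates above 20%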;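 note: 0% = compound-free wells with enzyme and 100% = wells lacking proteasome; stock transfer was 100 nL into about 20 µL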
# Target sequence (Q9Y5K5 whole entry, looked up): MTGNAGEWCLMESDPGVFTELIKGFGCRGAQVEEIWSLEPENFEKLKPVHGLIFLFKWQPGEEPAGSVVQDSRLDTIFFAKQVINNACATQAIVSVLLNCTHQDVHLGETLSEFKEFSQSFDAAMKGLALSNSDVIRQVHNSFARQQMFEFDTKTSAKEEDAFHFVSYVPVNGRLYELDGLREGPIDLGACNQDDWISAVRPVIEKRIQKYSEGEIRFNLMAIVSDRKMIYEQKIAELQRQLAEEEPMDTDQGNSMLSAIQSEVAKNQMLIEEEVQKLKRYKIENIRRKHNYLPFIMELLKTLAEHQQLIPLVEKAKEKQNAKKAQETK
#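 assay system = human UCH37 enzyme supplied as purified proteasome complex | amount = proteasome at 0.15 nM in the dispensed enzyme solution | schedule = 30 min compound-proteasome preincubation then 25 min substrate reaction, room temperature | measured by = fluorescence, ex 355 nm, em 460 nm | benchmarks = no-proteasome wells (full inhibition) and compound-free wells (no inhibition)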
# MLL AF4-AF9 inh = blocks AF4 peptide binding to human AF9 | P42568 | AlphaScreen, biotin-AF4 peptide binding to FLAG-AF9 | inhibition, % at 10 µM | 350,000 tested, 0.47% active | AID 651704;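 active = every replicate reaching a set inhibition limit, whatever the replicate mean, cut at about 25% in these data; inconclusive = mean inhibition reaches that limit but some replicates miss it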;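 note: 0% = plate neutral control median and 100% = total signal loss; the record names both 10 and 1 µM as test concentration; the first replicate is given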
# rRNA inh HTS OD600 = recorded beside rRNA inh HTS, whose call it bears; OD600 change, %; measured here: OD600 growth;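 optical density of the mix in the first replicate; 0 = DMSO median and -100 = no signal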
# rRNA inh HTS RFP = further read-out of rRNA inh HTS, marked with its call; RFP signal change, %; measured here: RFP humanized mutant strains;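 first replicate; 0 = DMSO median and -100 = no signal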
# Numbers without * were called inactive; i = inactive; ? = inconclusive; · = not tested or not shown; & = joins results of further samples. Not all compounds are listed; rates above refer to the full screens.
structure,UCH37 inh,MLL AF4-AF9 inh,rRNA inh HTS RFP,Bfl-1 A1 inh,Beta apoptosis,Ecoli growth,rRNA inh HTS,T cruzi inh,FGF22 binding,rRNA inh HTS OD600
C#Cc1ccc(C(=O)NCc2ccc(N3CCCC3=O)cc2)cc1,0.3,-1.0,-3.0,0.3,-1,0.71,8,-19,i,16
COc1ccc(CN(CC(=O)NCc2ccco2)C(=O)CCC(=O)Nc2ccccn2)cc1,4.1,·,·,0.1,-3,0.72,·,0,·,·
CC(C)NC(=O)Cn1c(SCC(=O)N2c3ccccc3CC2C)nc2ccccc21 (stereo not given),2.2,·,·,0.8,-8,0.69,·,9,·,·
O=C1CN2C(=Nc3ccc(Br)cc3C2c2ccccc2)CCN1 (stereo not given),2.9,·,·,-0.6,-2,0.68,·,-4,·,·
Cc1ccc(OCc2nnnn2-c2ccccc2)cc1,-1.2,-1.3,-2.1,-0.7,-2,0.65,-3,6,i,-4
CC(=O)N/C(=C/C(C)C)c1ccccc1,1.2,-1.9,-7.6,0.4,-8,0.73,15,·,i,8
CC(C)c1ccc(NC2CCCN(C(=O)c3cccnc3)C2)cc1 (stereo not given),0.0,3.8,0.3,-0.1,-1,0.7,3,-1,i,1
N#CCC(CNc1ncc(C(F)(F)F)cc1Cl)OC(=O)c1ccc(Cl)cc1Cl (stereo not given),5.9,-2.5,-4.0,0.3,12,0.73,-15,0,i,-13
CC(C)COc1nc2c(c(=O)n(C)c(=O)n2C)n1C,5.0,0.8,-7.1,1.1,6,0.69,2,-6,i,-1
COc1ccc(/C=N/NC(=O)C(=O)/C=C2\NC3(CCCC3)Cc3ccccc32)cc1,·,7.5,·,-0.7,-1,·,·,23,i,·
Fc1ccc(NC(=S)NCCc2ccccc2)c(F)c1F,0.8,·,·,-0.7,-1,0.62,·,-11,·,·
Cc1ccc2cc3cc(C(=O)NC4CCCCC4)oc3nc2c1,-314,-0.2,-1.0,-0.7,5,0.7,9,-2,i,14
O=C(/C=C/c1ccc2c(c1)OCO2)Nc1nc2ccc(F)cc2s1,-9.4,5.0,3.2,-0.9,17,0.65,4,-24,i,3
OCCC1CN(Cc2cccc3nccnc23)CCN1Cc1ccc(F)cc1 (stereo not given),4.7,-20,-1.5,0.1,-3,0.67,8,15,i,6
CC(C)CCNC(=O)C1CCN(S(=O)(=O)c2ccc3c(c2)CCC(=O)N3)CC1,5.2,-62,-1.7,?,·,0.74,8,-5,i,12
CCOc1cc(S(=O)(=O)N2CCC(Cc3ccccc3)CC2)c(OCC)cc1-n1cnnn1,-1.9,·,·,0.2,12,0.71,·,67*,·,·
CC(Sc1ccc(Cl)cc1)C(=O)N(C)CC(=O)Nc1ccc(N2CCOCC2)cc1 (stereo not given),-1.9,12,0.8,0.9,0,0.62,-5,-9,i,-9
O=C(Nc1ccc(F)cc1)Nc1ccc([N+](=O)[O-])cn1,-1.4,-3.0,-7.5,0.1,-4,0.69,7,-1,i,13
CCCCCCCC(=O)NN1CCOCC1,4.7,·,·,-0.9,-7,0.79,·,-5,·,·
Cc1[nH]n(C(N)=S)c(=O)c1N=Nc1cccc([N+](=O)[O-])c1C,8.9,·,·,-5.7,21,0.67,·,-34,·,·
Cc1nc(C(=O)Nc2cc(F)cc(Cl)c2)sc1C1(C)CC(c2ccccc2)=NO1 (stereo not given),1.0,-2.2,-4.1,1.4,-1,0.68,-14,26,i,-23
Cc1nccn1-c1c2c(c(C#N)c3nc4ccccc4n13)CCCC2,1.4,-1.1,3.5,·,·,0.68,10,·,i,-3
O=C(NCCCN1CCOCC1)c1cccnc1SCc1ccccc1Cl,1.2,1.1,2.1,0.7,-5,0.67,14,4,i,17
COCCCN1C(=O)C(=O)/C(=C(/O)c2ccc(OC)cc2)C12C(=O)N(C)c1ccccc12 (stereo not given),14,-1.7,-0.3,-0.1,-4,0.76,10,-9,i,10
CCS(=O)(=O)c1nc(S(=O)(=O)c2ccc(Cl)cc2)c(NCCCN2CCCC2=O)s1,2.6,-4.1,0.8,-0.2,-7,0.64,3,-9,i,8
Cc1ccc(C)c(NC(=O)CSc2nnc(-c3ccccc3C)o2)c1,0.5,·,·,0.2,2,0.71,·,4,·,·
COc1ccccc1COCC(O)CN1CCCCC1CO (stereo not given),4.4,2.5,-1.1,-0.6,-4,0.7,2,15,i,3
O=C(CCCC(=O)N1CCN(c2ccc([N+](=O)[O-])cc2)CC1)c1ccccc1,7.4,3.8,0.6,0.5,-20,0.67,-24,-15,i,-13
CCOc1ccc(S(=O)(=O)N2CCN(C)CC2)c(C)c1C,1.3,·,·,1.0,·,0.74,·,1,·,·
O=C(Nn1cnc2ccccc2c1=O)c1ccccc1Cl,3.4,·,·,0.7,·,0.72,·,-36,·,·
S=C(Nc1ccc(Br)cc1Cl)NN1CCOCC1,1.7,-1.5,-2.7,0.2,-2,0.67,3,-6,i,1
O=C(CSc1nnc(Nc2ccccc2F)s1)NC1CCCC1,0.6,-0.8,-0.7,0.3,3,0.67,8,·,i,9
CCC1CCCCN1CCCNC(=O)Cn1ncc2c(C)n(Cc3ccccc3Cl)c(C)c2c1=O (stereo not given),3.2,7.7,2.9,0.4,-8,0.73,6,8,i,4
CC(Oc1ccccc1Cl)C(=O)Nc1ccc(S(=O)(=O)N2CCCC2)cc1 (stereo not given),3.4,-3.2,-0.4,0.3,1,0.68,-10,2,i,-31
CCOc1cccc(/C=N/Nc2nc(N3CCCC3)nc(N3CCCC3)n2)c1O,·,11,-3.0,-0.3,3,·,13,12,i,13
Cc1cc(C(=O)N/N=C/c2ccc([N+](=O)[O-])cc2)c(C)o1,·,-0.4,0.8,-5.7,1,·,22,5,i,12
CN(c1ccc(OCC(=O)N2CCOCC2)cc1)S(=O)(=O)c1ccc(F)cc1,1.8,-18,-2.4,0.6,-5,0.68,8,5,i,5
CC(C)[C@H](NC(=O)N1c2ccccc2NC(=O)[C@@H]1C(C)C)C(=O)N[C@H](Cc1ccccc1)C(=O)O,0.3,-15,·,0.6,·,0.75,·,-5,i,·
COc1cc([C@@H]2[C@H]3CN(C)CC=C3C(C#N)=C(N)C2(C#N)C#N)cc2c1OCO2,3.6&0.0,-3.1,2.5,0.2,2,0.65&0.75,15,13,i,11
Cc1onc(-c2c(F)cccc2Cl)c1C(=O)O/N=C(\N)c1ccc([N+](=O)[O-])o1,·,3.2,5.4,-0.1,28,·,-7,60*,i,1

# Random excerpt: 6 records from the list
structure,UCH37 inh,MLL AF4-AF9 inh,rRNA inh HTS RFP,Bfl-1 A1 inh,Beta apoptosis,Ecoli growth,rRNA inh HTS,T cruzi inh,FGF22 binding,rRNA inh HTS OD600
C#Cc1ccc(C(=O)NCc2ccc(N3CCCC3=O)cc2)cc1,0.3,-1.0,-3.0,0.3,-1,0.71,8,-19,i,16
Cc1onc(-c2c(F)cccc2Cl)c1C(=O)O/N=C(\N)c1ccc([N+](=O)[O-])o1,·,3.2,5.4,-0.1,28,·,-7,60*,i,1
Cc1ccc(OCc2nnnn2-c2ccccc2)cc1,-1.2,-1.3,-2.1,-0.7,-2,0.65,-3,6,i,-4
O=C(CSc1nnc(Nc2ccccc2F)s1)NC1CCCC1,0.6,-0.8,-0.7,0.3,3,0.67,8,·,i,9
S=C(Nc1ccc(Br)cc1Cl)NN1CCOCC1,1.7,-1.5,-2.7,0.2,-2,0.67,3,-6,i,1
COCCCN1C(=O)C(=O)/C(=C(/O)c2ccc(OC)cc2)C12C(=O)N(C)c1ccccc12 (stereo not given),14,-1.7,-0.3,-0.1,-4,0.76,10,-9,i,10

# The listing continues:
structure,UCH37 inh,MLL AF4-AF9 inh,rRNA inh HTS RFP,Bfl-1 A1 inh,Beta apoptosis,Ecoli growth,rRNA inh HTS,T cruzi inh,FGF22 binding,rRNA inh HTS OD600
COc1ccccc1NC(=O)C(C)OC(=O)c1cccc(-n2cnnn2)c1 (stereo not given),-1.5,-3.1,-0.5,0.0,0,0.61,0,-1,i,-2
COc1ccc(Oc2cn[nH]c2-c2ccc(OCC(=O)NN)cc2O)cc1,3.6,1.6,1.2,-0.4,·,0.69,-9,-2,i,-7
CCN(C[C@H]1N[C@@](C)(C(=O)OC)[C@H]2C(=O)N(C)C(=O)[C@@H]12)S(=O)(=O)c1ccc(OC(F)(F)F)cc1,0.1,-1.4,4.7,·,·,0.72,10,·,i,5
O=C(NCCS(=O)(=O)N1CCCCC1)c1ccc2c(c1)OCO2,2.0,-1.4,-1.3,0.0,·,0.67,14,-11,i,9
Cc1ccc(CCNC(=O)C(C)n2nc(C)c3c(C)n(-c4ccccc4)nc3c2=O)cc1 (stereo not given),3.2,0.6,-0.7,0.5,3,0.7,1,9,i,4
CCN(CC)c1ccc(/C=N/NC(=O)CNC(=O)/C=C/c2ccco2)cc1,·,3.9,0.7,-0.4,1,·,-6,-1,i,-5
O=c1[nH]c(-c2ccco2)nc2sc3c(c12)CCCC3,-0.7,-13,8.3,-5.7,-2,0.66,7,3,i,9
O=C(C1CC1)N(CCc1ccccc1)Cc1nc2ccccc2c(=O)[nH]1,-1.1,·,·,-0.2,0,0.78,·,·,·,·
CCC(=O)Nc1cccc(-c2nnc(SCC(=O)NCc3ccco3)n2C)c1,2.7,·,·,-0.3,2,0.64,·,-17,·,·
O=[N+]([O-])c1ccccc1C=NNc1ccccc1,6.3,0.4,-14,·,·,0.68,-7,·,i,-27
